Six1-Eya2 inh: qHTS Assay for Inhibitors of the Six1/Eya2 Interaction; activity change, % (concentration not given with the values); AlphaScreen GST-Six1/His-Eya2 binding, biochemical; hits give low values; control for the full effect not named in the record; Homeobox protein SIX1 (Homo sapiens) + Protein phosphatase EYA2 (Homo sapiens), …; 360,000 tested, 0.56% active; in the data active = activity change below about -65%; inconclusive = about -30% to -65%; inactive = above about -30%; note: % is set by controls: 0 for no effect and ±100 for the full control effect
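GST-Six1 + His-Eya2 (5X stock: 250/500 nM); Tris pH 8.0, 300 mM NaCl, 0.05% BSA, 0.02% Tween 20; GSH donor/Ni acceptor beads; 1 h 37 °C dark; AlphaScreen readout.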
TRPV1 potentiator: HTS Assay for Compounds that Act as Potentiators of the Vanilloid Receptor 1. Transient receptor potential cation channel subfamily V member 1 (Homo sapiens), Q8NER1. 320,000 tested, 0.02% active. potentiation, % at 8.33 µM. AID 540277, 2011. TRPV1-expressing cells, Fluo-8 calcium influx, capsaicin EC20 potentiation; host cell line not named in the record; control for the full effect not named in the record; active means potentiation above 80%; inconclusive means 30% to 80%; inactive means below 30%; note: 0% is about no effect
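TRPV1-expressing cells were cultured overnight at 35.5C and loaded with Fluo-8 calcium dye for 40 to 90 min at room temperature. After a 10 s baseline, compound was added and calcium influx was read kinetically for 3 min (ex 480/em 520 nm).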
CtBP-E1A blk: qHTS Assay for Inhibitors of the CtBP/E1A Interaction; CtBP / adenovirus E1A interaction (AlphaScreen); AlphaScreen GST-E1A/His-CtBP binding, 1536-well; hits give low values; control for the full effect not named in the record; activity change, % (concentration not given with the values); 340,000 tested, 0.49% active; in the data active means activity change below about -65%; inconclusive means about -30% to -65%; inactive means above about -30%; note: % is set by controls: 0 for no effect and ±100 for the full control effect
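In 5 uL wells, 23 nL compound meets equimolar GST-E1A and His-CtBP (5X stock 125 nM each) for 2 h, 37 °C. Beads (5X, 50 ug/mL) then 1 h, 37 °C, dark.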
TRPML1 blocker: qHTS for Inhibitors of the Human Mucolipin Transient Receptor Potential 1 (TRPML1); Mucolipin-1 (Homo sapiens), Q9GZU1; TRPML1-inducible cells, Ca2+ dye fluorescence, FDSS; hits give low values; inhibition of EC80 agonist-evoked calcium signal; activity change, negative = inhibition, % (test concentration not listed); 390,000 tested, 0.02% active; AID 624415, 2012; in the data active means activity change below about -50%; inconclusive means about -30% to -50%; inactive means above about -30%;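 note: stimulus is agonist 54-4 at its EC80 concentration; % is set by controls: 0 for no effect and ±100 for the full control effect; compound concentration not given in the record; the text of the record puts the active cut at -80%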
Target sequence (Q9GZU1 whole entry, looked up): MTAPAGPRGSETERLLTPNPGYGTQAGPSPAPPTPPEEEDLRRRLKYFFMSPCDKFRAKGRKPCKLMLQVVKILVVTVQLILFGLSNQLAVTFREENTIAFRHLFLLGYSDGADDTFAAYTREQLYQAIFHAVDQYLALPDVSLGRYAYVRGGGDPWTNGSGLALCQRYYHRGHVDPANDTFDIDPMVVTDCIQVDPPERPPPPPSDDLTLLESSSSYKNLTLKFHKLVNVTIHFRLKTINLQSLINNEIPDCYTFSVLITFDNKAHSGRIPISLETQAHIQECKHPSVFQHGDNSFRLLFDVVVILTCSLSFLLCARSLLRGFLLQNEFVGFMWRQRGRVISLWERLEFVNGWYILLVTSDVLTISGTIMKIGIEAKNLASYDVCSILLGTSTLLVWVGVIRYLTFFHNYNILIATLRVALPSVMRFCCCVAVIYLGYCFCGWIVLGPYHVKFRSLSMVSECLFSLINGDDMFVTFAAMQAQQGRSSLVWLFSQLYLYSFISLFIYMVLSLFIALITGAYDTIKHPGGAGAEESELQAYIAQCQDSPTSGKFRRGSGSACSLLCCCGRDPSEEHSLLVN
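TRPML1-DL cells, Tet-induced overnight (~16 h, 37 °C) at 1,500 cells/well, were loaded with Ca8 no-wash dye plus quencher for 45-90 min at room temperature. Compounds were pinned during FDSS kinetic reading; agonist 54-4 at EC80 (4 uM final) then added.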
D2 potentiator: Beta-Arrestin HTS for Positive Allosteric Modulators of the Human D2 Dopamine Receptor: Potentiators; AID 624464, 2012; 360,000 tested, 0.23% active; D(2) dopamine receptor (Homo sapiens), P14416; potentiation, % (no concentration beside the values); DiscoveRx D2 beta-arrestin cells, luminescence, 90 min; 100% = 57 uM dopamine signal; active = potentiation of 50% or more; inconclusive = 30% to 50%; inactive = 30% or less;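 note: compound concentration not given in the record; tested on top of an EC20 dose of dopamine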
Target sequence (P14416 whole entry, looked up): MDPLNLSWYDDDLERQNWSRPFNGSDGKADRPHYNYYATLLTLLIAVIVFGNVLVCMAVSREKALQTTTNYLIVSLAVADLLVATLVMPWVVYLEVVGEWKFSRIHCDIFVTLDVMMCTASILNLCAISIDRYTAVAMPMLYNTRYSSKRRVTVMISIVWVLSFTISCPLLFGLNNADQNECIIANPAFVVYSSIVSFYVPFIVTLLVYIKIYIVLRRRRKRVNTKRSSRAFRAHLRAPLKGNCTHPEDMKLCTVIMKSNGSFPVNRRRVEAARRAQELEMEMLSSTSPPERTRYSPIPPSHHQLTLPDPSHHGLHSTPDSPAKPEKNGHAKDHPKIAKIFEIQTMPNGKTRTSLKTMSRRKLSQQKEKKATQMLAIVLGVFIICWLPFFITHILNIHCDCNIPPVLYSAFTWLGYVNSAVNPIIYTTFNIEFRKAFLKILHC
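PathHunter beta-arrestin assay in DiscoveRx D2 cells. Compounds were added with an EC20 of dopamine (50 nM final) for 90 min at 37 deg C. Luminescence was read 1 h after detection reagent, with 57 uM dopamine as the EC100 control.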
TRPML1 ag: qHTS for Agonists of the Human Mucolipin Transient Receptor Potential 1 (TRPML1). TRPML1-expressing cells, Ca2+ dye fluorescence, FDSS; host cell line not named in the record; reference of the full effect not given here. 410,000 tested, 0.12% active. Mucolipin-1 (Homo sapiens), Q9GZU1. activation, % (test concentration not listed); in the data active = activation above about 50%; inconclusive = about 30% to 50%; inactive = below about 30%; note: 0% is about no effect; the text of the record puts the active cut at 80%
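Agonist activity was taken from a 110 s kinetic Ca2+ dye read on the FDSS after pinning compounds onto TRPML1-DL cells. The cells were seeded at 1,500/well with Tet inducer, incubated about 16 h, then dye-loaded at room temperature.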
The depositor's hits bear a star; ? = inconclusive; · = not tested or not shown; & = joins results of further samples.

nr	compound	Six1-Eya2 inh	TRPV1 potentiator	CtBP-E1A blk
1	Cn1cnnc1SC/C(O)=C(\C#N)c1nc2ccccc2[nH]1	-8	1	-2
2	O=C(C(=O)N1CCOCC1)c1c[nH]c2ccccc12	-9	2	-4
3	O=C(N1CCN(c2ccc(F)cc2)CC1)C12CC3CC(CC(C3)C1)C2	-4	-22	1
4	Cc1ccc2nc(NC(=O)CCCC(=O)O)sc2c1	10	-9	·
5	CCCCOc1ccccc1C1NC(=O)CCC1[N+](=O)[O-] (centres undefined)	0	-12	9
6	COC(=O)c1sc2ncccc2c1OCc1cccc(Cl)c1	27	-1	12
7	Cc1ccc(CNC(=O)c2ccccc2-n2cnnn2)cc1	1	9	4
8	CCOc1[nH]n(-c2ccccc2)c(=O)c1C=Nc1ccc(F)cc1F	-4	2	·
9	COc1ccc(-c2noc(CCC(=O)Nc3cccc(C)c3)n2)cc1	1	23	18
10	Cc1ccc(N2CC(C(=O)NCCS(=O)(=O)N3CCN(c4ccc(F)cc4)CC3)CC2=O)cc1 (centres undefined)	1	?	4
11	O=C(COC(=O)c1cccc(S(=O)(=O)N2CCc3ccccc32)c1)NC1CCS(=O)(=O)C1 (centres undefined)	-1	12	-1
12	O=C(CCn1nnc2ccccc2c1=O)N[C@H](C(=O)O)c1ccccc1	4	4	6
13	C#CCN(C[C@H]1[C@H](OC(=O)NCc2ccc(OC)c(OC)c2)[C@H](OC(=O)NCc2ccc(OC)c(OC)c2)C[C@@H](C(=O)OC)[C@H]1C(=O)OC)S(=O)(=O)c1ccc(C)cc1	-12	·	-6
14	CC[n+]1c(/C=C/C=C/N(C(C)=O)c2ccccc2)sc2cc(OC)ccc21	?	0	-10
15	Cn1c(=O)[nH]c(=O)c2c1nc(CN1CCN(c3cccc(Cl)c3)CC1)n2CCc1ccccc1	-10	8	-24

nr	TRPML1 blocker	D2 potentiator	TRPML1 ag
1	5	-1	4.5
2	8	4	1.0
3	8	-10	2.6
4	10	-5	0.9
5	-6	-2	-0.6
6	-16	-15	3.4
7	25	-1	0.4
8	-18	-4	-1.1
9	-10	-8	-0.3
10	2&19	-1	0.6&2.1
11	4	7	-0.1
12	4	0	0.1
13	21	3	0.9
14	-11	-30	17
15	-19	-18	-0.5

Full records from above:
`COc1ccc(-c2noc(CCC(=O)Nc3cccc(C)c3)n2)cc1` reads Six1-Eya2 inh: 1; TRPV1 potentiator: 23; CtBP-E1A blk: 18; TRPML1 blocker: -10; D2 potentiator: -8; TRPML1 ag: -0.3
`O=C(COC(=O)c1cccc(S(=O)(=O)N2CCc3ccccc32)c1)NC1CCS(=O)(=O)C1` (centres undefined) reads Six1-Eya2 inh: -1; TRPV1 potentiator: 12; CtBP-E1A blk: -1; TRPML1 blocker: 4; D2 potentiator: 7; TRPML1 ag: -0.1

New compounds follow
nr	compound	Six1-Eya2 inh	TRPV1 potentiator	CtBP-E1A blk
16	COc1cccc(-c2cc(C(=O)NCC3CCCO3)on2)c1 (centres undefined)	2	-3	·
17	O=C1Cc2cc(O)ccc2O1	-1	·	3
18	O=C(CN1C(=O)S/C(=C\C=C\c2ccccc2)C1=O)Nc1cccc(O)c1	-1	-4	-6
19	O=C(c1cc(-c2cccs2)on1)N1CCN(c2ccccc2)CC1	-6	-11	-4
20	Cc1ccc(NC(=O)CSCC(=O)Nc2cc(S(=O)(=O)N3CCOCC3)ccc2OC(C)C)cc1	0	·	-3
21	CNC(=O)c1cc(Nc2nnc(C)c3ccccc23)ccc1OC	-6	24	-3
22	O=c1cc(N2CCN(c3ccccc3Cl)CC2)[nH]c(=O)n1Cc1ccc(F)cc1	6	11	0
23	O=C(CCN1C(=O)c2ccccc2C1=O)Nc1sc2c(c1C(=O)NCc1ccco1)CCCC2	-12	-2	-11
24	COC(=O)C1=C(C)OC(N)=C(C#N)C1c1c(C)nn(-c2ccccc2)c1Cl (centres undefined)	-1	25	-4
25	O=C(Nc1ccc(Oc2cccnc2)cc1)C1CCN(Cc2ccc(F)cc2)CC1	1	8	-7
26	O=C(COC(=O)C1CC1)c1c[nH]c2ccccc12	4	-6	6
27	CCN1C(=O)CS/C1=C(\C#N)S(=O)(=O)c1ccccc1	4	2	-1
28	COc1ccc(Nc2nc(N)nc(CSC(=S)N3CCCCC3)n2)cc1	0	5	·
29	CCCn1c(SCC(=O)c2[nH]c(C)c(C(C)=O)c2C)n[nH]c1=O	11	0	-1
30	CC1CCc2[nH]c3ccc(C(=O)N(C)CC(=O)Nc4ccccc4C(F)(F)F)cc3c2C1 (centres undefined)	-7	7	-2

nr	TRPML1 blocker	D2 potentiator	TRPML1 ag
16	11	3	-0.4
17	18	-3	-0.5
18	-20	-3	2.4
19	-21	-1	2.2
20	-1	-3	1.3
21	-11	12	-0.4
22	7	-1	2.5
23	-5	-16	0.5
24	26	4	2.0
25	7	-14	5.0
26	7	0	2.9
27	6	8	-0.5
28	-2	-6	2.9
29	21	-10	-0.5
30	-3	16	0.4

Part of the list above, as a markdown table.
| # | molecule | Six1-Eya2 inh | TRPV1 potentiator | CtBP-E1A blk | TRPML1 blocker | D2 potentiator | TRPML1 ag |
| --- | --- | --- | --- | --- | --- | --- | --- |
| 20 | Cc1ccc(NC(=O)CSCC(=O)Nc2cc(S(=O)(=O)N3CCOCC3)ccc2OC(C)C)cc1 | 0 | · | -3 | -1 | -3 | 1.3 |
| 21 | CNC(=O)c1cc(Nc2nnc(C)c3ccccc23)ccc1OC | -6 | 24 | -3 | -11 | 12 | -0.4 |

The listing continues:
nr	compound	Six1-Eya2 inh	TRPV1 potentiator	CtBP-E1A blk
31	Cc1ccc(NC(=O)CSc2nnc(-c3cnccn3)n2-c2ccccc2)cc1	1	21	4
32	Cc1cc2[nH]cnc2c([N+](=O)[O-])c1C	13	20	-9
33	O=C1CC(c2ccccc2)Cc2nc(N3CCc4ccccc4C3)ncc21 (centres undefined)	-1	?	-9
34	O=C(NCc1nc2ccccc2[nH]1)C1CCCCC1	1	4	·
35	O=C(Cc1ccc(Cl)cc1)NC1CCS(=O)(=O)C1 (centres undefined)	1	-1	-21
36	Cc1cccc(N=c2c([N+](=O)[O-])nn(-c3ccc(Cl)cc3)n2O)c1	-1	-4	-3
37	COCCN1C(=O)C(=O)/C(=C(/O)c2cccc(S(=O)(=O)N(C)C)c2)C12C(=O)N(C)c1ccccc12 (centres undefined)	5	4	-2
38	O=C(CCSc1nc(-c2ccco2)cc(C(F)(F)F)n1)N1CCCc2ccccc21	6	1	4
39	Cc1cc(C)c(C(=O)C(C)OC(=O)c2ccccn2)cc1C (centres undefined)	-1	8	-7
40	COc1ccc(-c2cc(C(F)(F)F)n3nc(C(=O)Nc4c(C)n(C)n(-c5ccccc5)c4=O)cc3n2)cc1	-4	1	2
41	COc1ccc(S(=O)(=O)N(C)c2c(C)n(C)n(-c3ccccc3)c2=O)cc1OC	9	-11	4
42	Cc1ccc(NC(=O)CCSc2nc(C)cc(C)n2)cc1	0	9	-2
43	CC(C)NC(=O)N(C)C[C@H]1Oc2ncc(Br)cc2C(=O)N([C@H](C)CO)C[C@@H]1C	3	·	3
44	Cc1sc(NC(=O)C2CCCCC2C(=O)O)c(C(N)=O)c1-c1ccccc1 (centres undefined)	6	-1	2
45	CCOc1ccc2nc(SC3CC(=O)N(c4ccccc4)C3=O)sc2c1 (centres undefined)	-5	-12	3

nr	TRPML1 blocker	D2 potentiator	TRPML1 ag
31	-9	1	1.1
32	5	-17	-0.6
33	9	-10	3.7
34	-15	2	0.9
35	5	-9	-0.6
36	9	?	-0.4
37	1	-5	0.6
38	33	5	-1.3
39	-2	-6	0.3
40	32	-4	-0.9
41	7	-9	-0.5
42	-3	-35	-0.1
43	-7	2	-0.4
44	17	1	0.1
45	-9	-12	0.2

The listing continues:
nr	compound	Six1-Eya2 inh	TRPV1 potentiator	CtBP-E1A blk
46	O=C1[C@H]2[C@@H](c3ccc(F)cc3)N3C(=O)N(c4cccc(Cl)c4)C(=O)[C@@]3(Cc3ccc(Cl)cc3)[C@H]2C(=O)N1C1CCCCC1	-5	-3	-1
47	CCNc1sc(C(=O)OCC)c(N)c1C#N	-2	-1	5
48	CCCOc1ccc(OCCSc2nnc(N)s2)cc1	1	-13	-2
49	CCOc1ccc(C(=O)CSCC(=O)O)cc1	17	-8	-3
50	CC(=O)Nc1nc(-c2ccc3c(c2)CCO3)cs1	8	20	·
51	O=C(NN1C(=O)C2C3C=CC(O3)C2C1=O)c1cccc(O)c1 (centres undefined)	-1	5	20
52	Cc1ccc(OCC(=O)NNC(=O)c2ccoc2C)c(Br)c1	-5	14	-1
53	CC1(C)Oc2ccc(C(=O)N3CCOCC3)cc2N(CC(=O)Nc2ccccc2)C1=O	0	0	-1
54	O=C(Nc1ccc(F)cc1)C1CC(=O)N(Cc2ccco2)C1 (centres undefined)	-1	-8	2
55	CC1CCCCN1C(=S)NCc1ccco1 (centres undefined)	0	-4	-3
56	COc1ccc(F)cc1C(=O)C1CCCN(C(=O)CCN2CCCCO2)C1 (centres undefined)	8	-5	·
57	Cc1ccccc1NC(=O)C1(NC(=O)c2cccc(N3C(=O)CSC3c3ccccc3)c2)CCCCC1 (centres undefined)	-3	22	-1
58	N=c1c(C(=O)NCc2ccco2)cc2c(=O)n3ccccc3nc2n1CC1CCCO1 (centres undefined)	-17	·	0
59	CC1CCN(C(=O)Cn2cnc3c(cnn3C(C)(C)C)c2=O)CC1	1	5	4
60	Nc1ccc2c(c1)nnn2-c1ccccc1	2	-19	-12

nr	TRPML1 blocker	D2 potentiator	TRPML1 ag
46	1	-4	-0.7
47	16	-6	1.4
48	-15	20	0.1
49	6	-13	1.6
50	5	-2	-0.2
51	-13	0	-0.2
52	17	-16	-0.1
53	-6	13	3.1
54	-8	-7	1.1
55	3	-8	-0.4
56	5	-10	-0.6
57	17	-6	1.5
58	22	-11	-0.8
59	5	-19	-0.6
60	2	-4	0.7

5 entries from above, sorted by the number in D2 potentiator, descending:
nr | structure | D2 potentiator
48 | CCCOc1ccc(OCCSc2nnc(N)s2)cc1 | 20
50 | CC(=O)Nc1nc(-c2ccc3c(c2)CCO3)cs1 | -2
46 | O=C1[C@H]2[C@@H](c3ccc(F)cc3)N3C(=O)N(c4cccc(Cl)c4)C(=O)[C@@]3(Cc3ccc(Cl)cc3)[C@H]2C(=O)N1C1CCCCC1 | -4
57 | Cc1ccccc1NC(=O)C1(NC(=O)c2cccc(N3C(=O)CSC3c3ccccc3)c2)CCCCC1 (centres undefined) | -6
49 | CCOc1ccc(C(=O)CSCC(=O)O)cc1 | -13
